# Screens: PubChem BioAssay, Center for Chemical Genomics, University of Michigan
# CDC25B-CDK2 inh – human CDC25B-CDK2/CyclinA binding inhibition; P30305+P24941; HTRF CDC25B-CDK2/CyclinA binding, anti-His/anti-Flag; active compounds read high; z-score (concentration not given with the values); 0.72% of 94,000 active; AID 1259370;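 further: score is relative to mean and SD of negative controls; strong numbers were not always called active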
# TAR Tat displ – HIV-1 TAR-Tat binding disruption; HIV-1 TAR RNA, Tat peptide displacement FRET; active compounds read high; z-score (test concentration not listed); 0.6% of 100,000 active;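 further: score is relative to mean and SD of negative controls; some compounds called inactive have numbers as strong as hits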
# * = called active by the depositor; x = no result given.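 How the source made its calls: active means z-score from 3 up in half or more of its runs; inactive means the rest.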 Outcome played no part in choosing rows (roughly 0.97% active in at least one column).
SMILES,CDC25B-CDK2 inh,TAR Tat displ
COc1ccc(CCNC(=O)CSc2nc(-c3ccco3)nc3cc(=O)[nH]n23)cc1OC,x,1.8
CN1CCOc2cc(/C=C3\C(=O)Nc4ccccc43)ccc21,-2.6,x
O=C(NCCc1cccs1)c1ccc(CS(=O)c2ccc(Cl)cc2)o1 (stereo not drawn),x,1.8
O=C1CC(c2ccco2)CC2=C1C1c3ccccc3C(=O)N1c1ccccc1N2 (stereo not drawn),-0.14,x
COc1cc(OC)cc(-n2nnc(S(=O)(=O)c3ccc(C)cc3)c2C)c1,-1.7,-0.2
Cc1nnc(-c2cccc(S(=O)(=O)NCCc3ccccc3)c2)o1,-0.59,1.4
O=C(CCc1nc2sc3c(c2c(=O)[nH]1)CCCCC3)NCc1ccc2c(c1)OCO2,x,1.4
COc1ccc(OC)c(Nc2ncc3c(n2)CCN(Cc2ccccn2)C3)c1,x,0.63
CCCCSc1nc2c3cc(OC)ccc3n(C)c2c(=O)n1C,-1.1,-0.62
O=C1CC(c2ccccc2)Cc2nc(NCc3ccco3)ncc21 (stereo not drawn),-0.3,1.7
Cc1c(C(=O)NC2CCCCC2C)oc2ccc3c(c12)C(=O)CC(C)(C)O3 (stereo not drawn),-1.9,0.41
O=C(C1CCCN1c1nnc(N2CCCC2=O)s1)N1CCCCC1 (stereo not drawn),-2.9,2.1

# A second format for some results above.
structure | CDC25B-CDK2 inh | TAR Tat displ
COc1cc(OC)cc(-n2nnc(S(=O)(=O)c3ccc(C)cc3)c2C)c1 | -1.7 | -0.2
Cc1nnc(-c2cccc(S(=O)(=O)NCCc3ccccc3)c2)o1 | -0.59 | 1.4
O=C(CCc1nc2sc3c(c2c(=O)[nH]1)CCCCC3)NCc1ccc2c(c1)OCO2 | x | 1.4

# Following part.
SMILES,CDC25B-CDK2 inh,TAR Tat displ
O=C(NNC(=O)c1cc(C(F)(F)F)cc(C(F)(F)F)c1)c1ccc(Cl)cc1,-2.5,x
Cc1ccc(CNC(=S)NN(C)C)cc1,-0.39,x
CCOc1ccc(C2c3c(oc4ccccc4c3=O)C(=O)N2c2nnc(C(C)C)s2)cc1OCC (stereo not drawn),-0.5,0.61
CC(C)CC1NC(=S)N(C2CCCCC2)C1=O (stereo not drawn),-2.6,x
COCCCNC(=S)N/N=C/c1ccc(OC)c(Br)c1,-1,x
CCOC(=O)COc1ccccc1C1C(C(=O)OC)=C(C)NC2=C1C(=O)c1ccccc12 (stereo not drawn),0.98,0.66
CC1CC(C)CN(S(=O)(=O)N2CCCC(C(=O)NCCCN3CCOCC3)C2)C1 (stereo not drawn),x,1.2
CCOC(=O)C1=C(C)N(c2ccc(Br)cc2)C(=O)C1,-0.51,-0.66
COc1cnc(CSc2ncccn2)cc1OCC(=O)N1CCc2ccccc21,x,1.6
CNC(=O)C1Cc2cc(S(=O)(=O)N3CCCC3)ccc2N1C(C)=O (stereo not drawn),x,1.9
O=C(O/N=C1/CCCc2occc21)c1ccc([N+](=O)[O-])cc1,-0.86,x
C=CCn1c(Oc2ccc(C(=O)OC)cc2)nc2c1c(=O)n(C)c(=O)n2C,-0.51,0.54
CCN1C(=O)C2(c3ccccc31)c1c(oc3ccccc3c1=O)C(=O)N2CCOC (stereo not drawn),-1.4,1.4
CCC1Sc2ccc(S(=O)(=O)CCC(=O)NC3CCCCC3C)cc2NC1=O (stereo not drawn),x,-0.11
COc1ccc(CCNS(=O)(=O)c2ccc(-c3ccc(=O)[nH]n3)o2)cc1OC,x,1.6
COc1cccc(C2C3=C(CC(C)(C)CC3=O)NC3=C2C(=O)c2ccccc23)c1OC (stereo not drawn),-4.9,0.65
O=C(c1cccc(NC(=O)N2CCSc3ncccc32)c1)N1CCN(c2ncccn2)CC1,x,1.3
COc1ccc(OC)c(CNc2nc3nc(C(C)C)cc(=O)n3[nH]2)c1,-1.5,-0.56
O=C1NCCCCC1NS(=O)(=O)c1ccccc1 (stereo not drawn),-1.8,x
O=S(=O)(Cc1ccc(Br)cc1F)c1ccccn1,-1.9,x
Cc1nn(CC(=O)NC(C)c2ccccc2)c(=O)c2cc3occc3n12 (stereo not drawn),-0.76,0.26
CC(C)(C)NC(=O)CCCC1=NS(=O)(=O)c2ccccc2N1,x,1.1
Cc1cc2c(cc1S(=O)(=O)Nc1ccc(F)cc1F)OCCN2C,x,4.6
N#CC(c1c(Cl)cccc1N1CCCCC1)N1CCCCC1 (stereo not drawn),-2.1,x

# Looked up by compound from the list above, 5 records:
SMILES,CDC25B-CDK2 inh,TAR Tat displ
CC(C)(C)NC(=O)CCCC1=NS(=O)(=O)c2ccccc2N1,x,1.1
COc1ccc(CCNS(=O)(=O)c2ccc(-c3ccc(=O)[nH]n3)o2)cc1OC,x,1.6
O=C1NCCCCC1NS(=O)(=O)c1ccccc1 (stereo not drawn),-1.8,x
Cc1cc2c(cc1S(=O)(=O)Nc1ccc(F)cc1F)OCCN2C,x,4.6
COc1ccc(OC)c(CNc2nc3nc(C(C)C)cc(=O)n3[nH]2)c1,-1.5,-0.56

# Continued.
SMILES,CDC25B-CDK2 inh,TAR Tat displ
Cc1noc2ncnc(NC3CCCC3)c12,x,-0.25
CC(Sc1ccsc1[N+](=O)[O-])C(=O)N1CCN(c2ccccn2)CC1 (stereo not drawn),-2.3,-2.4
CCn1c(SCC(=O)NC(C)c2ccccc2)nnc1-c1nonc1NC(C)=O (stereo not drawn),-2.1,1.4
O=C(COc1ccccc1)Nc1c(C(=O)N2CCN(C(=O)c3ccco3)CC2)oc2ccccc12,x,0.22
O=C1C(=O)N(Cc2cccnc2)C(c2ccc(Br)cc2)/C1=C(\O)c1ccc(F)cc1 (stereo not drawn),-0.42,1.3
CCC(C(=O)Nc1cccc(SC)c1)n1c(C)c2cnn(-c3ccccc3)c(=O)c2c1C (stereo not drawn),-2.8,3.6
c1cc(OC2CCNCC2)cc(-n2cnnn2)c1,-2.1,-0.9
CCCCc1nnc(NC(=O)CSCc2cc(=O)n3cc(C)sc3n2)s1,x,0.23
CC(C)c1nnc(NC(=O)C2c3ccccc3Oc3ccccc32)s1,0.23,0.42
CCOC(=O)c1ccc(Nc2c(-c3ccc(C(C)C)cc3)c(=O)c2=O)cc1,x,0.88
COc1ccccc1-c1n[nH]c(=S)o1,-0.65,-0.28
CCCCC1=NN(C(=O)COc2ccc(Cl)c(C)c2)C(O)(C(F)(F)F)C1 (stereo not drawn),-1.4,x
Cc1cc(C)n2nc(S(=O)(=O)Nc3c(Cl)nc(C)c(Cl)c3C)nc2n1,0.51,x
O=C1c2ccccc2C(=O)C1c1ccccc1,x,1.2
CCn1c(=O)c(CCC(=O)O)c(C)c2c(C)nn(-c3ccccc3)c21,-1.4,0.06
CC(C)N(C(=O)Cn1cc(S(=O)(=O)Cc2ccc(Br)cc2)c2ccccc21)C(C)C,x,0.72
CC1Cn2cc(C(=O)Nc3ccc4c(c3)OCO4)c(=O)c3c(Cl)ccc(c32)O1 (stereo not drawn),x,0.71
COc1ccc(S(=O)(=O)Nc2cccc(-c3ccc(N4CCCC4)nn3)c2)cc1F,x,2.4
COc1ccc(SCc2cc(=O)n3c4c(sc3n2)CCCC4)cc1,-1.3,-0.65
Cc1ccc(C2CC(c3ccco3)n3nc(N)nc3N2)cc1 (stereo not drawn),-1.2,0.36
CC(C)CCNC(=O)C1(C)Cn2nc(C(=O)NCCC3=CCCCC3)cc2C(=O)N1C (stereo not drawn),x,-0.74
Cc1ccc(C(C)C)c(OCC(=O)N2N=C(CC(C)C)CC2(O)C(F)(F)F)c1 (stereo not drawn),-1.1,x
CCOC(=O)CSc1nnc(CSc2ncccn2)n1-c1ccc(Cl)cc1,-2.6,-0.92
Cc1ccc2c(C)nc(Nc3nc(C)c(Cc4ccccc4)c(=O)[nH]3)nc2c1,0.94,0.14
CCC(=O)N1c2ccccc2CC1C(=O)NCCSCc1ccco1 (stereo not drawn),x,0.6
Clc1ccc(N=Cc2ccc(-c3cccs3)s2)cc1,-1.8,x
O=c1[nH]n(-c2ncnc3sc4c(c23)CCCC4)c(=O)c2ccccc12,-1.7,2.3
Cc1cc(C)c(S(=O)(=O)NCc2c(C)nn(C)c2C)c(C)c1,x,0.7
COc1ccc(C(=O)c2oc3ccc(OC)cc3c2N)cc1,-2.1,0.68
Cc1ccc(Nc2c(-c3ccc(C)s3)nc3ncccn23)cc1,-2.7,1.1
CCCCCCCSc1nc2c(c(=O)[nH]c(=O)n2C)n1C,-0.73,0.3
CCOc1ccc(/C=C/c2nc(C#N)c(NCC(C)C)o2)cc1,-3,1.9
O=C(Nc1c(C(=O)N2CCOCC2)oc2ccccc12)c1cccs1,x,1.3
CCOc1ccc(CSc2n[nH]c(C)n2)cc1,-1.4,2.7
O=S(=O)(c1ccc(-c2nc3ccccc3s2)cc1)N1CCc2ccccc21,-0.3,0.43
O=C1CC(c2ccccc2)Cc2nc(N3CCN(Cc4ccc5c(c4)OCO5)CC3)ncc21 (stereo not drawn),-2.1,-0.9

# Reprinted from the part before: two entries; new compounds follow.
SMILES,CDC25B-CDK2 inh,TAR Tat displ
O=S(=O)(c1ccc(-c2nc3ccccc3s2)cc1)N1CCc2ccccc21,-0.3,0.43
O=C1CC(c2ccccc2)Cc2nc(N3CCN(Cc4ccc5c(c4)OCO5)CC3)ncc21 (stereo not drawn),-2.1,-0.9
COc1ccc(NC(=O)c2sc(=S)n(-c3ccccc3)c2N)c(OC)c1,x,1.1
O=C(Nc1ccc2c(c1)OCO2)NC(c1ccc(Cl)cc1)c1nnc(-c2ccccc2)o1 (stereo not drawn),x,0.56
COC(=O)CCC(=O)N1CCc2ccccc21,-0.82,1.2
CN(CC(=O)NCc1ccccn1)S(=O)(=O)c1cc2c(cc1Cl)NC(=O)CO2,x,1.4
CCOc1ccc(-c2nn3c(C4COc5ccccc5O4)nnc3s2)cc1 (stereo not drawn),-1.2,1
O=C(CCCc1nc(-c2ccc(Cl)cc2)no1)N1CCOCC1,-1.6,-2.1
c1ccc(-c2cn3c4ccccc4nc3n2CCN2CCCCC2)cc1,0.51,x
Cc1ccc(C(CNC(=O)c2oc3ccc(F)cc3c2C)N(C)C)o1 (stereo not drawn),-1.3,1.1
Nc1ncnc2nc(SCCN3CCCCC3)[nH]c12,0.74,1.9
CCN(CC)CCNC(=O)C1CCN(c2ncnc3onc(C)c23)CC1,x,2.9
CC1=C(C(=O)OC(C)C)C(c2ccccc2)NC(=O)N1 (stereo not drawn),-0.98,x
COc1cccc(/C=N/NC(=O)C2CCCN(C(=S)NNC3CC4C=CC3C4)CC2)c1O (stereo not drawn),-1.8,x
CCSc1nc2ccc(NC(=O)c3sc4nc(-c5ccncc5)ccc4c3N)cc2s1,-0.72,1.6
COc1ccc(Nc2cc(Nc3ccc(F)cc3)ncn2)cc1,0.58,0.76
CCN1CCN(c2nc(NCCCO)nc3c2cnn3C)CC1,x,1.3
COc1ccc(-n2c(C)nc3c(cnn3-c3ccc(F)cc3)c2=O)cc1Cl,-2.7,x
O=C(NCCCN1CCOCC1)c1ccco1,-1.3,-1.6
O=c1[nH]c2ccccc2n1Cc1ccccc1,-1.1,x
CCCc1nnc(N2C(=O)c3oc4ccc(F)cc4c(=O)c3C2c2ccc(OCC)c(OC)c2)s1 (stereo not drawn),-1.7,2.1
Cc1ccc(C)c(NC(=O)CSC2=Nc3ccccc3C3=NC(C)C(=O)N23)c1 (stereo not drawn),x,0.15
COc1ccc(S(=O)(=O)NCCc2sc(C)nc2C)cc1C,x,0.39
COc1ccc(-c2onc(C)c2C)cc1S(=O)(=O)N1CCN(c2cc(C)ccc2C)CC1,x,-1.2
COC(=O)C1=C(C)NC(=O)NC1c1ccc(C(C)C)cc1 (stereo not drawn),-1.6,x
CCCS(=O)(=O)c1nc(S(=O)(=O)c2ccc(Cl)cc2)c(NCC(C)C)s1,-2.5,1.4

# Whole records as entered above.
# Entry for `CCSc1nc2ccc(NC(=O)c3sc4nc(-c5ccncc5)ccc4c3N)cc2s1` = CDC25B-CDK2 inh = -0.72; TAR Tat displ = 1.6
# Entry for `COC(=O)C1=C(C)NC(=O)NC1c1ccc(C(C)C)cc1` (stereo not drawn) = CDC25B-CDK2 inh = -1.6; TAR Tat displ = x

# The list continues:
SMILES,CDC25B-CDK2 inh,TAR Tat displ
O=C(Cn1ncc2c1-c1ccccc1OC2)N1CCc2ccccc2C1,-0.62,-0.45
Cc1ccc2nc(Nc3ccc(C)c(C)c3)c3nnnn3c2c1,x,0.01
COCCOC(=O)C1=C(C)N=C2SCCC(=O)N2C1c1ccc(OC(=O)c2ccco2)cc1 (stereo not drawn),-0.99,-0.28
CS(=O)(=O)Nc1cccc(-c2ccc(S(C)(=O)=O)nn2)c1,x,-0.88
Cc1cc(-c2ccc(C(C)C)c(S(=O)(=O)NCc3ccc4c(c3)OCO4)c2)on1,x,1.3
Cc1nnsc1C(=O)NNC(=O)C1CCCCC1,-1.3,x
O=S(=O)(Nc1ccc(Br)cc1)c1ccccc1,-1.3,2.2
Cc1ccc(C)c(Cn2c(C)c(CNC(C)C)c(C(=O)O)c2C)c1,x,-0.17
O=C1NCCOc2ccc(S(=O)(=O)NCc3ccc(F)cc3)cc21,x,0.56
CN1CCc2cc(O)c(O)cc2C1Cc1ccc(O)c(O)c1 (stereo not drawn),x,38*
O=c1ccc(-c2ccc(S(=O)(=O)NCCCN3CCC(N4CCCCC4)CC3)s2)n[nH]1,x,-0.15
CN(CCNC(=O)C1CCN(c2ncnc3c2nc2n3CCCCC2)CC1)C1CCCCC1,x,0.43
CC1=C(c2ccccc2)S(=O)(=O)N=C1Nc1cccc(C)n1,-1.4,-0.04
O=c1c2nccnc2nc(SCc2ccccc2Cl)n1Cc1ccc(F)cc1,x,0.31
O=C(CS(=O)(=O)c1cccc2nsnc12)Nc1cccc2c1CCCC2,x,0.28
Cc1cc2[nH]c(=O)c(CCO)c(C)n2n1,-1.5,x
CC1=C(c2ccc(C(C)C)cc2)S(=O)(=O)N=C1N1CCc2ccccc2C1,-1.5,-0.9
Cc1ccc(Cn2c3ccccc3c3nnc(NCC4CCCO4)nc32)cc1 (stereo not drawn),-0.85,1
